# Vaccinia stage – blocks a specific stage of Vaccinia orthopoxvirus infection | Vaccinia-infected cells, mCherry/Venus stage reporter fluorescence; active compounds read low; some inactives read as strong as hits | activity change (mCherry), % (test concentration not listed) | hit rate 0.01% among 89,000;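 active = mCherry past -33% and 40 or more points under the early reporter, replicates agreeing; inconclusive = past -33% without that gap or agreement; tested in A549 cells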;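 also: scaled between vehicle wells and reference inhibitor wells; 23 nL library stock went into each well; one replicate is shown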
# Vaccinia stage Venus – recorded beside Vaccinia stage, whose call it bears; activity change (Venus), %; measured here: Venus reporter, other viral stage;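 negative = less Venus signal; first of two replicates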
# Active calls of the source: *; ? = inconclusive; . = not tested or not shown; & = joins results of further samples. The list is partial, so the mix of outcomes need not match the whole.
SMILES,Vaccinia stage,Vaccinia stage Venus
C[C@H]1CN([C@@H](C)CO)C(=O)c2cc(NS(=O)(=O)c3ccccc3)ccc2O[C@@H]1CN(C)C(=O)Nc1cccc2ccccc12,19,16
C=CCOC(=O)[C@@H]1[C@H]2C(=O)O[C@H](c3ccccc3)[C@H](c3ccccc3)N2[C@H](c2ccc(OCCOC(=O)[C@@H]3C[C@@H]4C(=O)N[C@@H](Cc5ccccc5)C(=O)N4[C@@H]3c3ccc(O)cc3)cc2)[C@@]12C(=O)Nc1ccccc12,21,14
CC(C)CC#Cc1ccc([C@H]2[C@@H](CO)N3CCCCN(C(=O)c4ccc5c(c4)OCO5)C[C@H]23)cc1,-34,-31
Cc1noc(C)c1NC(=O)N(C)C[C@H]1Oc2ncc(C#CCN(C)C)cc2C(=O)N([C@@H](C)CO)C[C@H]1C,21,21
O=C(c1cccc(F)c1)N1C[C@H]2[C@@H](c3ccccc31)[C@@H](CO)N2C(=O)C1CC1,11,11
COCC(=O)N(C)C[C@H]1[C@H](c2ccccc2)[C@H](CO)N1C(=O)Cc1cccnc1,2,4
CCC(=O)N1[C@H](CN(CC)C(=O)c2cccc(F)c2)[C@H](c2ccccc2)[C@@H]1CO,5,-4
Cn1cnc(S(=O)(=O)N2C[C@@H](O)COC[C@@H]3O[C@H](CC(=O)NCc4ccc(F)cc4)CC[C@H]32)c1,7,9
O=C(C[C@H]1CC[C@@H](NC(=O)Cc2cccnc2)[C@H](CO)O1)NCc1ccc2c(c1)OCO2,1,0
CCCC(=O)Nc1ccc2c(c1)C(=O)N(C)[C@@H]1CC[C@H](CC(=O)NCCc3ccncc3)O[C@@H]1CO2,5,1
CN1c2ccc(-c3ccc(F)cc3)cc2[C@H]2[C@H](CCN2C(=O)c2ccncc2)[C@@H]1CO,-32,-19
O=C(C[C@@H]1C=C[C@H](NC(=O)CN2CCOCC2)[C@@H](CO)O1)NCc1cccc(F)c1,12,17
Cc1ccc(S(=O)(=O)N[C@H]2CC[C@@H](CCn3cc(C(C)C)nn3)O[C@H]2CO)cc1,-13,-10
COc1cccc(-c2ccc([C@@H]3[C@@H](CO)N4C(=O)CN(C(=O)C5CCCCC5)C[C@H]34)cc2)c1,-27,-16
COc1ccc(NC(=O)N(C)C[C@H]2OCc3ccccc3-c3c(n(C)c4ccccc34)C(=O)N([C@@H](C)CO)C[C@H]2C)cc1,-20,-20

# Rewritten bar-delimited: ten of the compounds above
smiles | Vaccinia stage | Vaccinia stage Venus
Cc1noc(C)c1NC(=O)N(C)C[C@H]1Oc2ncc(C#CCN(C)C)cc2C(=O)N([C@@H](C)CO)C[C@H]1C | 21 | 21
O=C(c1cccc(F)c1)N1C[C@H]2[C@@H](c3ccccc31)[C@@H](CO)N2C(=O)C1CC1 | 11 | 11
COCC(=O)N(C)C[C@H]1[C@H](c2ccccc2)[C@H](CO)N1C(=O)Cc1cccnc1 | 2 | 4
CCC(=O)N1[C@H](CN(CC)C(=O)c2cccc(F)c2)[C@H](c2ccccc2)[C@@H]1CO | 5 | -4
Cn1cnc(S(=O)(=O)N2C[C@@H](O)COC[C@@H]3O[C@H](CC(=O)NCc4ccc(F)cc4)CC[C@H]32)c1 | 7 | 9
O=C(C[C@H]1CC[C@@H](NC(=O)Cc2cccnc2)[C@H](CO)O1)NCc1ccc2c(c1)OCO2 | 1 | 0
CCCC(=O)Nc1ccc2c(c1)C(=O)N(C)[C@@H]1CC[C@H](CC(=O)NCCc3ccncc3)O[C@@H]1CO2 | 5 | 1
CN1c2ccc(-c3ccc(F)cc3)cc2[C@H]2[C@H](CCN2C(=O)c2ccncc2)[C@@H]1CO | -32 | -19
O=C(C[C@@H]1C=C[C@H](NC(=O)CN2CCOCC2)[C@@H](CO)O1)NCc1cccc(F)c1 | 12 | 17
Cc1ccc(S(=O)(=O)N[C@H]2CC[C@@H](CCn3cc(C(C)C)nn3)O[C@H]2CO)cc1 | -13 | -10

# (listing goes on)
SMILES,Vaccinia stage,Vaccinia stage Venus
O=C(N[C@@H]1C=C[C@H](CC(=O)N2CCOCC2)O[C@H]1CO)c1cccc(F)c1,3,7
CCCC#Cc1ccc2c(c1)O[C@@H](CN(C)C(=O)NCCC)[C@H](C)CN([C@H](C)CO)S2(=O)=O,-2,-10
CC(C)CC#Cc1cnc2c(c1)C(=O)N([C@H](C)CO)C[C@@H](C)[C@H](CN(C)C(=O)CC1CC1)O2,-21,-20
CO[C@H]1CC[C@H]2CCOc3c(C#N)cccc3C(=O)N(C)C[C@@H](OC)[C@H](C)C(=O)N(C)C[C@H]1O2,13,4
CC(=O)N1[C@H](CNC(=O)C2CC2)[C@H](c2ccc(-c3ccc(F)cc3)cc2)[C@@H]1CO,0,6
C[C@H](CO)N1C[C@H](C)[C@H](CN(C)Cc2ccc(Cl)c(Cl)c2)OCc2ccccc2-c2ccccc2C1=O,?,.
C[C@H]1CN([C@@H](C)CO)C(=O)Cc2cc(NS(=O)(=O)c3ccccc3)ccc2O[C@@H]1CN(C)Cc1ccc(C(=O)O)cc1,9,9
COC(=O)[C@@H]1[C@@H](CO)[C@@H]2Cn3c(ccc(-c4ccncc4)c3=O)[C@H]1N2S(=O)(=O)c1ccccc1C,-4,-6
O=C1N[C@H](c2ccccc2)COCn2nncc2CC[C@H]1Cc1ccccc1,2,-2
CC(=O)N(C)C[C@@H]1Oc2cc(C#C[C@H](C)O)ccc2S(=O)(=O)N([C@@H](C)CO)C[C@H]1C,8,-1
Cc1ccc(S(=O)(=O)Nc2ccc3c(c2)CC(=O)N([C@H](C)CO)C[C@@H](C)[C@H](CN(C)CC2CCCCC2)O3)cc1,-33,-17
C[C@H](CO)N1C[C@H](C)[C@H](CN(C)Cc2ccc(-c3ccccc3)cc2)Oc2c(NS(=O)(=O)c3ccc(F)cc3)cccc2C1=O,?,.
COc1ccc2c3c([nH]c2c1)[C@H](CO)N(C(=O)c1ccc(F)cc1)CC31CCN(C(=O)Nc2cccc(F)c2)CC1,-21,-18
COc1ccccc1C#Cc1ccc2c(c1)O[C@H](CN(C)C)[C@@H](C)CN([C@H](C)CO)S2(=O)=O,?,.
C[C@@H]1CCCCO[C@H](CN(C)C(=O)c2ccncc2)[C@@H](C)CN([C@H](C)CO)C(=O)c2cc(NC(=O)c3ccncc3)ccc2O1,25,14
COc1ccc(S(=O)(=O)N(C)C[C@H]2OCCCC[C@H](C)Oc3ccc(N(C)C)cc3C(=O)N([C@H](C)CO)C[C@@H]2C)cc1,-9,-9
O=C(C[C@@H]1CC[C@H]2[C@@H](COC[C@@H](O)CN2C(=O)C2CCCC2)O1)NCc1ccncc1,6,0
CO[C@@H]1CN(C)C(=O)c2cc(NC(=O)C3CCC3)ccc2OC[C@H](C)N(Cc2ccccn2)C[C@H]1C,-11,-7
CO[C@@H]1CN(C)C(=O)c2ccc(NC(=O)C3CC3)cc2OC[C@@H](C)N(Cc2cccnc2)C[C@@H]1C,-1,2
COCCNC(=O)C[C@@H]1CC[C@H]2[C@@H](COc3ccc(NC(=O)C4CCOCC4)cc3C(=O)N2C)O1,8,15
O=C(NCC1CCCCC1)[C@H]1[C@H](CO)[C@H]2Cn3c(ccc(C4=CCCC4)c3=O)[C@@H]1N2C(=O)CC1CC1,-13,-4
CC(C)CC#Cc1ccc([C@@H]2[C@H]3CN(S(=O)(=O)c4cccc(F)c4)CC(=O)N3[C@H]2CO)cc1,?,.
C[C@@H]1CN([C@H](C)CO)C(=O)Cc2cc(NC(=O)C3CCCCC3)ccc2O[C@H]1CN(C)Cc1ccc(-c2ccccc2)cc1,-22,-12
CCCNC(=O)N(C)C[C@@H]1Oc2cc(C#CC3CC3)ccc2S(=O)(=O)N([C@@H](C)CO)C[C@H]1C,-16,-11
CCCC(=O)N1CC2(CCN(C(=O)C3CC3)CC2)c2c(n(C)c3cc(OC)ccc23)[C@H]1CO,-3,-7
O=C(C[C@H]1C[C@H]2c3cc(NC(=O)CC4CC4)ccc3O[C@H]2[C@@H](CO)O1)NCc1ccc(Cl)cc1,-15,2
C(=C\c1ccc(C2[C@H]3CNC[C@@H]2N3Cc2nccs2)cc1)/c1ccccc1 (stereo partly specified),-1&-12,-2&-14
CO[C@@H]1CN(C)C(=O)c2ccc(NC(=O)Nc3c(C)noc3C)cc2OC[C@@H](C)N(CC2CC2)C[C@H]1C,13,8
COc1ccc(S(=O)(=O)N(C)C[C@H]2OCCCC[C@@H](C)Oc3ccc(NS(=O)(=O)c4cccs4)cc3C(=O)N([C@@H](C)CO)C[C@H]2C)cc1,?,.
CC(C)C#Cc1cnc2c(c1)C(=O)N([C@H](C)CO)C[C@H](C)[C@H](CN(C)C(=O)Nc1ccccc1)O2,-4,-2
CCCC#Cc1ccc([C@@H]2[C@H](C#N)N(S(C)(=O)=O)[C@H]2CO)cc1,0,-2
O=C(C[C@H]1C=C[C@H](NC(=O)c2cccnc2)[C@@H](CO)O1)NCc1ccncn1,13,9
CS(=O)(=O)Nc1ccc2c(c1)[C@@H]1C[C@H](CC(=O)NCCN3CCCCC3)O[C@H](CO)[C@@H]1O2,14,15
O=C(C[C@@H]1C=C[C@H](NS(=O)(=O)c2ccccc2)[C@@H](CO)O1)NCc1ccc(Cl)c(Cl)c1,7,8
CC(=O)N(C)C[C@@H]1Oc2ncc(C#Cc3ccccc3F)cc2C(=O)N([C@@H](C)CO)C[C@H]1C,1,-4
CN(C)CC(=O)N[C@@H]1C=C[C@H](CC(=O)NCc2ccc(Cl)cc2)O[C@@H]1CO,4,7
C[C@@H]1CCCCO[C@H](CN(C)Cc2ccc(C(F)(F)F)cc2)[C@H](C)CN([C@@H](C)CO)C(=O)c2cc(NC(=O)CCCN(C)C)ccc2O1,?,.
COc1ccc(NC(=O)N(C)C[C@H]2OCCCC[C@H](C)Oc3ccc(NC(=O)Nc4ccc(F)cc4)cc3C(=O)N([C@@H](C)CO)C[C@@H]2C)cc1,-2,12
C[C@H]1CN([C@@H](C)CO)C(=O)c2cc(C3=CCCC3)cnc2O[C@H]1CN(C)C(=O)Nc1ccccc1,1,8
COc1ccc(S(=O)(=O)N(C)C[C@@H]2Oc3ccc(NC(=O)CCCN(C)C)cc3C(=O)N([C@H](C)CO)C[C@@H]2C)cc1,15,6
CCCC#Cc1cnc2c(c1)C(=O)N([C@@H](C)CO)C[C@H](C)[C@@H](CN(C)C(=O)Nc1cc(F)ccc1F)O2,6,4
CCNC(=O)Nc1ccc2c(c1)C(=O)N(C)[C@H]1CC[C@H](CC(=O)N[C@H](C)c3ccccc3)O[C@H]1CO2,2,9
N#C[C@@H]1[C@H](c2ccc(-c3ccc(F)cc3)cc2)[C@H](CO)N1c1nc(-c2ccccc2)cs1,0,6
CCCNC(=O)C[C@H]1CC[C@H]2[C@@H](COc3ccc(NS(=O)(=O)CC)cc3C(=O)N2C)O1,0,2
C[C@@H]1CN([C@H](C)CO)C(=O)c2cc(NC(=O)NC3CCCCC3)ccc2O[C@H]1CN(C)S(C)(=O)=O,2,13
C[C@@H]1CN([C@@H](C)CO)C(=O)c2cc(NS(=O)(=O)c3ccc(Cl)cc3)ccc2O[C@@H](C)CCCCO[C@H]1CN(C)C,3,11
N#Cc1ccc(-c2ccc3c(c2)[C@@H]2[C@@H](CCN2C(=O)c2ccncc2)[C@H](CO)N3)cc1,14,16
COC(=O)C[C@H]1CC[C@@H]2[C@@H](COc3ccc(NC(=O)c4ccc(C(F)(F)F)cc4)cc3C(=O)N2C)O1,-34,-27
O=C(C[C@H]1CC[C@@H]2[C@H](COC[C@H](O)CN2Cc2cccc(C(F)(F)F)c2)O1)NCc1ccc(F)cc1,?,.
COc1ccc2c3c(n(C)c2c1)[C@H](CO)N(C(=O)Nc1ccc(F)cc1)CC31CN(Cc2cccnc2)C1,?,.
Cc1noc(C)c1NC(=O)Nc1ccc2c(c1)C(=O)N([C@H](C)CO)C[C@@H](C)[C@@H](CN(C)S(=O)(=O)c1cccs1)OCCCC[C@H](C)O2,10,5
C[C@@H]1CN([C@H](C)CO)C(=O)c2cc(NC(=O)Nc3ccc(F)cc3)ccc2O[C@H]1CN(C)Cc1ccc(Oc2ccccc2)cc1,-19,-18
C/C=C/c1ccc2c(c1)O[C@@H](CN(C)C(=O)Nc1ccc(OC)cc1)[C@H](C)CN([C@H](C)CO)S2(=O)=O,-6,-9
C[C@@H]1CCCCO[C@@H](CN(C)S(=O)(=O)c2cn(C)cn2)[C@@H](C)CN([C@H](C)CO)C(=O)c2cc(NS(=O)(=O)c3cccs3)ccc2O1,27,18
C[C@@H]1CCCCO[C@@H](CN(C)Cc2ccc(C(F)(F)F)cc2)[C@@H](C)CN([C@@H](C)CO)C(=O)c2cc(N(C)C)ccc2O1,-28,-21
CCC(=O)N[C@@H]1C=C[C@@H](CC(=O)OC)O[C@H]1CO,1,4
C[C@H](CO)N1C[C@H](C)[C@H](CN(C)C(=O)CCC(F)(F)F)OCCCC[C@H](C)Oc2ccc(NC(=O)Nc3ccccc3)cc2C1=O,-4,2
C/C=C/c1ccc([C@@H]2[C@@H](CO)N(C(C)=O)[C@H]2CN(C(=O)COC)C(C)C)cc1,3,3
Cc1ccc(S(=O)(=O)Nc2ccc3c(c2)CC(=O)N([C@@H](C)CO)C[C@@H](C)[C@H](CN(C)S(=O)(=O)c2c(C)noc2C)O3)cc1,-1,-6
COCC(=O)N(C)C[C@@H]1Oc2ncc(-c3ccc(F)cc3)cc2C(=O)N([C@@H](C)CO)C[C@H]1C,23,15

# (next part)
SMILES,Vaccinia stage,Vaccinia stage Venus
COCC#Cc1ccc([C@@H]2[C@H](CO)N3C(=O)CN(C(=O)Nc4ccccc4F)C[C@@H]23)cc1,4,1
Cc1noc(C)c1NC(=O)Nc1ccc2c(c1)C(=O)N([C@@H](C)CO)C[C@@H](C)[C@@H](CN(C)C(=O)CCCN(C)C)OCCCC[C@H](C)O2,37,15
O=C(C[C@H]1CC[C@@H]2[C@H](COC[C@@H](O)CN2C(=O)c2ccccc2F)O1)N1CCCCC1,16,10
C[C@H]1CN([C@@H](C)CO)C(=O)c2cccc(NC(=O)C3CCOCC3)c2O[C@@H]1CN(C)C(=O)Nc1ccc(F)cc1,8,6
